Source: PubChem BioAssay (Johns Hopkins Ion Channel Center)
KCNQ2 inh: KCNQ2 potassium channel inhibitors, primary screen, cell-based, CHO-K1, FluxOR thallium flux, B-score (AID 2156); hit rate 1.1% among 310,000; 20 min; hits give low values; only compounds with negative scores are shown here; some inactives read as strong as hits; Potassium voltage-gated channel subfamily KQT member 2 (Rattus norvegicus), O88943; B-score at 10 µM;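 active = fluorescence ratio B-score at most minus 3 library SDs, with starting brightness B-score within 2 library SDs, cut at about -5.5 in these data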
Target sequence (O88943 whole entry, looked up): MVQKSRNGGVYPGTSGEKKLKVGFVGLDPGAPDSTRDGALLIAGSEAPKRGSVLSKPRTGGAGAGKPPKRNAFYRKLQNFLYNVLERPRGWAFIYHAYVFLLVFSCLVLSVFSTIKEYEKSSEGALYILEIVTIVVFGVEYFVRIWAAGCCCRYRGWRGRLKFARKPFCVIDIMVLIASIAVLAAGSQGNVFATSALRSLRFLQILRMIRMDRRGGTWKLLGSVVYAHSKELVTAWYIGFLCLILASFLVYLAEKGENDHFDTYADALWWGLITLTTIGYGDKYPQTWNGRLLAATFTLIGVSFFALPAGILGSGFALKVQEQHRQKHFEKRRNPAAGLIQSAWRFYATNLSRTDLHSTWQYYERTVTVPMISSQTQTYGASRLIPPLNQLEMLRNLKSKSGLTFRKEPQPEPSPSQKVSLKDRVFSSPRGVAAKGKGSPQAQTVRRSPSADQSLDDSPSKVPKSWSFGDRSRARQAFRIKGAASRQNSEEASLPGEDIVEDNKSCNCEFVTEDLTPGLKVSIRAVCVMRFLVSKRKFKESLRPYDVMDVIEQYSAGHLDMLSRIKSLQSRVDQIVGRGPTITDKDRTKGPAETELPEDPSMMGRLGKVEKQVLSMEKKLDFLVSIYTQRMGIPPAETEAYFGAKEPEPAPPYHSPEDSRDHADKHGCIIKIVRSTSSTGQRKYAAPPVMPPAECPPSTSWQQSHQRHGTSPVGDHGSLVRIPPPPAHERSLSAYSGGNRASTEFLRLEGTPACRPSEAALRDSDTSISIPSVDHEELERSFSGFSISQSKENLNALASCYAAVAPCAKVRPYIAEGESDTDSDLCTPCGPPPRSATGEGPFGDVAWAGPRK
KCNQ2 inh baseline: second read-out of KCNQ2 inh, no call of its own (marks repeat the call); B-score; measured here: initial fluorescence intensity artifact check;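 brightness before thallium and not channel activity; 0 = typical well and far values either way flag optical interference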
An asterisk follows results filed as active; i = inactive. The list is partial; the hit share may differ from the screen's.

Start of the data: the first 4 entries, to show the layout:
KCNQ2 inh baseline | KCNQ2 inh | Structure
-1.6 | i | COc1ccc(NC2CCCN(C(=O)c3cc(C)nc4cc(F)ccc34)C2)cc1 (configuration not stated)
-0.16 | i | Cc1cc(C(=O)NNC(=O)/C=C/c2ccc(F)cc2)c(C)o1
1.7 | i | Nc1nonc1-c1nc2ccccc2n1CC(=O)NC1CCCC1
0.34 | i | Cc1n[nH]c(C)c1S(=O)(=O)N1CCCC(C(=O)NCc2ccccc2Cl)C1 (configuration not stated)

The list itself, from the first entry:
KCNQ2 inh baseline | KCNQ2 inh | Structure
-1.6 | i | COc1ccc(NC2CCCN(C(=O)c3cc(C)nc4cc(F)ccc34)C2)cc1 (configuration not stated)
-0.16 | i | Cc1cc(C(=O)NNC(=O)/C=C/c2ccc(F)cc2)c(C)o1
1.7 | i | Nc1nonc1-c1nc2ccccc2n1CC(=O)NC1CCCC1
0.34 | i | Cc1n[nH]c(C)c1S(=O)(=O)N1CCCC(C(=O)NCc2ccccc2Cl)C1 (configuration not stated)
1.8 | i | CCOc1ccc(C(=O)Nc2ccc(NC(=S)NC(=O)CC)cc2)cc1Cl
-1.9 | i | O=C(Nc1cc(S(=O)(=O)N2CCCCC2)ccc1Oc1ccccc1)C1=COCCO1
-1.1 | i | COc1cccc(/C=C2/NC(=O)N(CC(=O)Nc3ccc(C)cc3)C2=O)c1OCc1cccc(C(=O)O)c1
1.4* | -6.5* | CCOC(=O)c1ccc(NC(c2ccc(N(C)C)cc2)P(=O)(OC(C)C)OC(C)C)cc1 (configuration not stated)
0.56 | i | CCN(CC(=O)NCc1ccc(Cl)cc1)C(=O)C1CCN(S(=O)(=O)c2ccc(OC)c(OC)c2)CC1
-0.45 | i | Cc1ccc2nc(SCC(=O)Nc3nonc3N)[nH]c2c1
-0.82 | i | CC/C(C)=N/N1C(=O)c2ccccc2NC1(C)CC (configuration not stated)
1.3 | i | COc1ccc(OC)c(/C=C/C(=O)N(C)CC(=O)Nc2ccc(C)cc2)c1
2.2 | i | COc1ccc(C(=O)Nc2ccc(Cc3ccncc3)cc2)cc1Br
0.11 | i | CCCCn1c(N)c(N(CCC(C)C)C(=O)c2cccc(N3C(=O)c4ccccc4C3=O)c2)c(=O)[nH]c1=O
-0.96 | i | Nc1c(N(CCC2=CCCCC2)C(=O)Cc2ccc(F)cc2)c(=O)[nH]c(=O)n1Cc1ccccc1
0.03 | i | O=C(CCCCCCCCN1C(=O)c2ccccc2C1=O)N1CCOCC1
0.74 | i | CN(c1nnc(N)s1)C1CCCCC1
0.36 | i | CCOC(=O)C1(Cc2ccccc2)CCN(Cc2cc(OC)c3c(c2)OCO3)CC1
-0.04 | i | O=C(Nc1nccs1)c1cccc(S(=O)(=O)N2CCCCC2)c1
0.33 | i | O=C(CSc1ccc2nnc(-c3ccccc3)n2n1)NCc1ccc2c(c1)OCO2
-0.03 | i | COc1ccccc1NC(=O)CCn1c(=O)c2cccn2c2ccccc21
-3 | i | CCN1CCN(c2ncnc3scc(-c4ccc(C)c(C)c4)c23)CC1
3.4 | i | COc1ccc2c(c1)C(=O)N(CCc1ccc(S(=O)(=O)NC(=O)NC3CCCCC3)cc1)C(=O)C2(C)C
-0.24 | i | Cc1csc(NC(=O)c2cc[n+]([O-])cc2)n1

Brought forward from above: two entries, then new ones.
KCNQ2 inh baseline | KCNQ2 inh | Structure
3.4 | i | COc1ccc2c(c1)C(=O)N(CCc1ccc(S(=O)(=O)NC(=O)NC3CCCCC3)cc1)C(=O)C2(C)C
-0.24 | i | Cc1csc(NC(=O)c2cc[n+]([O-])cc2)n1
4.1 | i | CCCC[n+]1c2ccccc2cc2ccccc21
0.2 | i | CCOC(=O)c1ccc2c(c1)n(CC)c(/C=C/N(C)c1ccccc1)[n+]2CC
0.43 | i | CSc1ccc(/C=N/N(C)S(=O)(=O)c2ccc(C)cc2)cc1
-1.4 | i | COP(=O)(OC)c1nc(-c2cccc3ccccc23)oc1NCCc1ccccc1
-0.53 | i | O=C(NCCN1CCCCCC1)c1ccc(N2CCCC2=O)cc1
0.02 | i | CC(C)(C)c1ccc(C(=O)NCCC(=O)N2CCC3(CC2)NCCc2[nH]cnc23)cc1
-2.4* | -9.8* | CCOc1ccc2oc(C(=O)N3CCN(c4ccccc4OCC)CC3)c(C)c2c1
-1.6* | -10* | O=C(CSc1nc2ccccc2c(=O)n1NC(=O)c1ccccc1)c1ccc(Cl)cc1
68 | i | O=C(O)c1ccccc1-c1ccc(/C=C/c2cc(C(F)(F)F)[nH]c(=O)n2)o1
-0.07 | i | O=C(NCc1cccc(Br)c1)C1CC2Cn3c(nc4ccccc43)C2N1c1ccccc1 (configuration not stated)
-0.02 | i | CCOc1cc(CNCCSc2nnnn2C)cc(Br)c1OCc1ccccc1
0.47 | i | CCOC(=O)c1c(-c2ccc(OC)cc2)csc1NC(=O)CSc1ccccc1
0.93 | i | CC(Sc1nc2ccccc2c(=O)n1CC1CCCO1)C(=O)Nc1ccc(S(N)(=O)=O)cc1 (configuration not stated)
-0.49 | i | O=C(NNC(=S)NCCc1ccccc1)c1ccc(Br)s1
0.03 | i | COc1ccccc1N1CCN(C(=O)CCCCCn2c(=O)[nH]c3ccsc3c2=O)CC1
0.53 | i | CCN(CC)S(=O)(=O)c1cc(NC(=O)[C@@H](NC(N)=O)C(C)C)ccc1C
0.69 | i | CCCCN(CCCC)CCn1cnc2c([nH]c3ccc(OC)cc32)c1=O
-0.81 | i | CCN1CCc2c(sc(NC(=O)c3ccc(S(=O)(=O)N4CCCCCC4)cc3)c2C(=O)NC)C1
0.44 | i | O=C(Nc1cccc(Cl)c1N1CCCCC1)c1ccc(N2CCOCC2)c([N+](=O)[O-])c1
-0.19 | i | COc1ccccc1-c1coc2c(CN(C)C)c(O)ccc2c1=O
1.5 | i | COc1ccc(/C=C2\SC(=S)N(c3cccnc3)C2=O)cc1
3.6 | i | Cc1ccc2c(c1)sc(-c1ccc(N(C)C)cc1)[n+]2C
-1 | i | Cc1cccn2c(=O)c(/C=N/O)c(N3CCCC3)nc12
0.68 | i | Cc1nn(C)cc1C(C(=O)NC1CCCCC1)N(C(=O)c1cnccn1)c1ccc(Oc2ccccc2)cc1 (configuration not stated)
2.1 | i | C=CCNc1nc(N)c([N+](=O)[O-])c(NC2CCCCC2)n1
0.05 | i | COc1cc2c(cc1OC)C(c1cccs1)CC(=O)N2 (configuration not stated)
0.95 | i | Cc1cc(O)c(C(=O)/C=C/c2cccc([N+](=O)[O-])c2)c(=O)o1
-0.47 | i | Cc1nn(C)c(Oc2ccccc2)c1[N+](=O)[O-]
1.8 | i | CCOC(=O)c1sc(N/N=C/c2cccc(C)c2)nc1C
0.33 | i | COC(=O)C1CCN(C(=O)COC(=O)c2ccc3[nH]c4c(c3c2)CCCC4)CC1
-0.29* | -7.3* | Cc1ccc(CN2CCN(/N=C/c3ccc(C(=O)O)cc3)CC2)c(C)c1
0.26 | i | CC(=O)Nc1nonc1-n1nnc(C(=O)NCc2ccccc2)c1C
-1.8 | i | CCOc1ccc(NC(=O)c2ccccn2)cc1
1.7 | i | Clc1ccc(Cn2nnc(-c3ccccc3)n2)cc1
-2.6 | i | CN(C)CCCNCCCNC(=O)c1ccncc1
-0.64 | i | CCCCN1CC(=O)N2[C@H](c3ccc(OC)cc3)[C@@H]3C(=O)N(CC)C(=O)[C@@H]3[C@]2(C)C1=O
-0.77 | i | OC(COCc1cccs1)CN1CCCCCC1 (configuration not stated)
-0.44 | i | CCCCCc1ccc(OCCCC[n+]2ccc(C)cc2)c(CCCCC)c1
-0.07 | i | COc1cc(NC(=O)NC(C)(C(F)(F)F)C(F)(F)F)cc(OC)c1OC
-0.07 | i | O=C1CS/C(=N/N=C2C3CC4CC(C3)CC2C4)N1
0.03 | i | COc1ccc(C)cc1NC(=O)NCCCCc1ccccc1
-0.02 | i | CC(C)NC(=O)C(c1ccc(F)cc1)N(C(=O)CCC(=O)Nc1ccccn1)c1cccc(F)c1 (configuration not stated)
1.2 | i | O=C(N/N=C/c1cn(-c2cccs2)nc1-c1ccccc1)c1ccccc1Cl
0.39 | i | COc1ccc(C2=CC(c3ccc(OC)c(OC)c3)n3nnnc3N2)c(OC)c1 (configuration not stated)
15 | i | CC1(C)CC(=O)C2=C(C1)OC(N)=C(C#N)C2c1cc2c(cc1[N+](=O)[O-])OCO2 (configuration not stated)
-1 | i | COc1ccc(C)cc1NC(=O)C1CCN(S(=O)(=O)c2cccs2)CC1
1.2 | i | CC(C)OCCCNC(=O)NC12CC3CC(CC(C3)C1)C2
0.13 | i | CCC/C=N/NC(=O)c1cccc(Br)c1
0.16 | i | CC(OC(=O)c1ccccc1Nc1ccc(SC(F)F)cc1)C(N)=O (configuration not stated)
0.69 | i | CCN(CCn1cccn1)C(=O)CC1C(=O)NCCN1Cc1ccc(OC)c(OC)c1 (configuration not stated)
-0.04 | i | Cc1ccccc1NC(=O)CC1SC(=NC2CCCCC2)NC1=O (configuration not stated)
-1.2 | i | C[C@@H]1CCC[C@@]2(O[C@H](CCO)C[C@H](O)[C@H]2O)O1
1.6 | i | Cc1nn(C(C)(C)C)c(OC(=O)c2cccs2)c1S(=O)(=O)c1ccccc1
-0.01 | i | CCN(CC(=O)NC(C)(C)C)Cc1nc2c(Br)cc(Br)cc2c(=O)[nH]1
1.3 | i | Cc1nc(/C(N)=N/OC(=O)Cc2ccccc2)no1
0.84 | i | COc1ccc(OCCNS(=O)(=O)Cc2ccccc2)cc1
-0.03 | i | CC(C)CCC(CCN1CCOCC1)c1ccc2c(c1)OCO2 (configuration not stated)
2 | i | Cc1ccc(-c2n[nH]c(=O)c3ccccc23)c(C)c1
-0.99 | i | O=C(NCCCNCCCNC(=O)c1ccc(/C=N/O)nc1)c1ccc(/C=N/O)nc1
-0.4 | i | O=C(c1ccc(Br)cc1)c1sc(N2CCOCC2)nc1-c1ccccc1

The listing continues.
KCNQ2 inh baseline | KCNQ2 inh | Structure
-0.2 | i | Cc1ccc(-n2ccnc2SCC(=O)N(CC(C)C)C2CCS(=O)(=O)C2)c(C)c1 (configuration not stated)
2 | i | Cc1ccc(CNC(=O)CCCNS(=O)(=O)c2cccc3nonc23)cc1
0.17 | i | Cn1c(=O)c(C(=S)NC(=O)C2CC2)c(N)n(Cc2ccccc2)c1=O
0.39 | i | Cc1ccc(-n2[nH]c(C)c(C=Nc3ccc4[nH]c(=O)[nH]c4c3)c2=O)cc1
-0.66 | i | NC(=O)CN1C(=O)C(=O)N(Cc2cccc(Cl)c2)C1=O
0.91 | i | COC(=O)c1cn(CC(=O)NC2CCCCCC2)c2ccccc12
1.7 | i | Nc1nc(-c2ccccc2)c(C(=O)Nc2ccccc2)s1
-0.69 | i | CCOc1ccc(NC2CCCCC2NS(=O)(=O)c2ccccc2)cc1 (configuration not stated)
-0.09 | i | Cn1cnc([N+](=O)[O-])c1N=C(N)N
1.4 | i | CC(Sc1nncn1C)C(=O)NCc1ccc2c(c1)OCO2 (configuration not stated)
-1.3 | i | C=CCC1(CC=C)CCCN1C(=O)c1cc(COc2cccc(OC)c2)on1
0.81 | i | O=C(Cn1c(COc2ccccc2)nc2ccccc21)Nc1cc(Cl)ccc1Cl
-0.58* | -5.8* | CN(Cc1ccccc1)C(NC(=O)c1ccccc1)C(Cl)(Cl)Cl (configuration not stated)
1.5 | i | CCc1ccccc1NC(=O)C(C)n1nc([N+](=O)[O-])c(Br)c1C (configuration not stated)
1.2 | i | CCCC(=O)Nc1ccc(S(=O)(=O)Nc2cc(OC)ncn2)cc1
0.07 | i | C/C(NCc1cccnc1)=C(\C#N)C(=O)NCc1ccccc1
-1.6 | i | Cc1cccc(C(=O)NC(=S)Nc2ccccc2C(F)(F)F)c1
0.41 | i | O=S(=O)(NCCC1=CCCCC1)c1c(Cl)cccc1Cl
-0.35 | i | CCCCn1c(N)c(N(CC)C(=O)c2ccc(Cl)c([N+](=O)[O-])c2)c(=O)[nH]c1=O
-3.5 | i | Cc1ccccc1/C=C1\Sc2ccc(C(=O)N3CCN(c4ccccn4)CC3)cc2N(C)C1=O
-0.56 | i | COc1ccc(-c2cc(C(=O)OCC(=O)N3CCCC3)c3ccccc3n2)cc1
0.08 | i | c1ccc(-c2nc(-n3nc4ccccc4n3)nc3ccccc23)cc1
-0.81 | i | CC(OC(=O)c1ccccc1Oc1ccccc1)C(=O)NC1CC1 (configuration not stated)
-0.03 | i | CC(C)CC(=O)Nc1ccc(N2CCOCC2)cc1
3.5 | i | O=C(Nc1ccc(N2CCOCC2)c(Cl)c1)c1ccc(S(=O)(=O)N2CCOCC2)cc1
-0.11 | i | CC(C)Cc1nnc(NC(=O)c2ccc([N+](=O)[O-])cc2)s1
0.01 | i | COc1ccc(S(=O)(=O)N2CCNCC2)cc1OC
-1.2 | i | O=C(c1cc2ccccc2oc1=O)N(Cc1ccco1)Cc1cccs1
-1.1 | i | C=C(C)Cn1c(Sc2nnc(C)s2)nc2c1c(=O)[nH]c(=O)n2C
-0.04 | i | COc1ccc(S(=O)(=O)O/N=C2\CCSc3ccc(C)cc32)cc1
0.13 | i | CCOc1ccc(N=C(NN)c2ccc3ccccc3n2)cc1
-0.21 | i | CCOc1c(Br)cc(Br)cc1/C=C1\SC(N)=NC1=O
0.01 | i | CCOCCCNC(=O)C(NC(=O)Cc1cccs1)c1ccccc1 (configuration not stated)
-1.1 | i | COc1ccc(C)cc1N(C(=O)c1ccc(C#N)cc1)C1=NC(C)(C)CS1
2.6 | i | CC12CC3CC(C)(C1)CC(C(=O)NCc1cccnc1)(C3)C2

Arranged by molecular weight (highest first): some entries from above
KCNQ2 inh baseline | KCNQ2 inh | Structure
-0.21 | i | CCOc1c(Br)cc(Br)cc1/C=C1\SC(N)=NC1=O
-1.1 | i | COc1ccc(C)cc1N(C(=O)c1ccc(C#N)cc1)C1=NC(C)(C)CS1
-0.04 | i | COc1ccc(S(=O)(=O)O/N=C2\CCSc3ccc(C)cc32)cc1
0.01 | i | CCOCCCNC(=O)C(NC(=O)Cc1cccs1)c1ccccc1 (configuration not stated)
0.13 | i | CCOc1ccc(N=C(NN)c2ccc3ccccc3n2)cc1
